Rce1 inhib = inhibitors of yeast Ras-converting enzyme. Q03530. yeast membranes, quenched prenylated peptide cleavage fluorescence. calls only. 290,000 tested, 0.27% active;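 active = fall in fluorescence gain of 50% or more versus controls, with final raw signal at or below 3038400; inconclusive = same 50% fall but final raw signal above 3038400; inactive = fall in fluorescence gain under 50%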;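 also: plate controls were neutral control wells for no effect and wells lacking membranes for full effect; tested at 10 µM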
Target sequence (Q03530 whole entry, looked up): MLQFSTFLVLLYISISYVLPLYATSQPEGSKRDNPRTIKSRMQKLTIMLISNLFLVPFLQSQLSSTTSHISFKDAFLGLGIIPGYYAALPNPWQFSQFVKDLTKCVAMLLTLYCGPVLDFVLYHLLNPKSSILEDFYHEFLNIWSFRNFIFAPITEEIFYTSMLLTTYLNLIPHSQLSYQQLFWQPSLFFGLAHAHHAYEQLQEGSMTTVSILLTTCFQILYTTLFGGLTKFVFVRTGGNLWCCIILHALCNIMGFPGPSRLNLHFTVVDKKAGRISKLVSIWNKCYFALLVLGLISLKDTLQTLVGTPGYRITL
eIF4H inh = inhibitors of RNA binding by human eIF4H | 290,000 tested, 0.94% active | inhibition, % at 35 µM | eIF4H fluorescence polarization binding assay;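 active = 50% or more with normal probe brightness, or confirmed in later tests; inconclusive = above 50% with abnormal brightness, or retests that disagree; inactive = below 50% or failed in later tests; about a fifth of its hits are not listed in these tables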;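 also: calls also rest on retests at 20 µM and on dose response follow-up; 0% = protein and probe with vehicle and 100% = probe without protein; strong numbers were not always called active; many hits fall short of the cut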
CSC inhib = cancer stem cell inhibition | 300,000 tested, 1.1% active | cancer stem cell-like cells viability, luminescence | inhibition, % at 7.5 µM;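 active = mean at 75% or more and at least half the replicates too; inconclusive = mean and replicates disagree; tested in HMLE shEcad cells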;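 also: 0% = median of negative and 100% = median of positive control wells; the first replicate is given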
Yeast UUG start = alters start codon recognition fidelity in yeast | activity score, % at 18.7 µM | 350,000 tested, 0.13% active | S. cerevisiae UUG-firefly luciferase reporter, luminescence/redox ratio;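 active = replicate mean at a twofold rise or more, about +100% in these data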;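 also: firefly luciferase made from a UUG start codon reports start codon fidelity; reporter light over untreated wells divided by growth signal over untreated wells; some hits fall short of that in this replicate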
PABP polyA inh = blocks human PABP binding to poly(A) RNA; 290,000 tested, 1% active; P11940; fluorescence polarization; AID 2014; inhibition, % at 35 µM;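 active = 50% or more with normal probe brightness, or confirmed in later tests; inconclusive = above 50% with abnormal brightness, or retests that disagree; inactive = below 50% or failed in later tests; about a fifth of its hits are not listed in these tables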;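 also: calls also rest on retests at 20 µM and on dose response follow-up; controls were probe without protein and protein plus probe with vehicle; some compounds called inactive have numbers as strong as hits; many hits fall short of the cut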
MT1-MMP act inh = MT1-MMP (human) activation inhibition; 360,000 tested, 0.061% active; P50281; HT1080 RFP-PRO-GFP cells, GFP/RFP ratio fluorescence, overnight; percent of plate control window, DMSO zero; GFP/RFP ratio change, % at 20 µM; AID 651647;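 active = GFP/RFP ratio change of at least 30% with cell ATP level not reduced by more than half and red fluorescence within 50% of control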; also: strong numbers were not always called active
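Assay system: HT1080 RFP-PRO-GFP cells. Benchmarks: DMSO vehicle wells and RFP-L50D-GFP reporter cell wells. Times: overnight cell settling, then overnight compound exposure, 37 °C, 5% CO2. Compound: 20 µM single dose, 1% DMSO. Read-out basis: GFP/RFP fluorescence ratio.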
HIV Env fusion = HIV envelope-mediated fusion inhibition; HeLa-JRFL Env/CEM21 cell fusion, luciferase; inhibition, % at 12.3 µM; 360,000 tested, 1.1% active;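 active = mean replicate inhibition score of at least 50 and every replicate individually at or above 50; inconclusive = only one of the two criteria met; inactive = mean below 50 and not all replicates reaching 50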;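 also: 0% = plate neutral controls and 100% = maraviroc near 300 nM; one replicate is shown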
eIF4H inh retest = recorded beside eIF4H inh, whose call it bears; inhibition, %; compound at 20 µM; confirmation average;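 mean of two retest wells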
PABP polyA inh retest = recorded beside PABP polyA inh, whose call it bears; inhibition, %; compound at 20 µM; confirmation repeats;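 mean of two retest wells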
MT1-MMP act inh RFP = also measured in MT1-MMP act inh; calls as there; RFP signal change, %; measured here: RFP expression control read;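 0 = vehicle wells; hits needed this value within 50% of zero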
* = called active by the depositor; i = inactive; ? = inconclusive; nt = not tested or not shown.

SMILES	Rce1 inhib	eIF4H inh	CSC inhib	Yeast UUG start	PABP polyA inh	MT1-MMP act inh	MT1-MMP act inh RFP	HIV Env fusion	others
CSc1nc(-c2ccco2)nn1S(=O)(=O)c1ccccc1	i	-5	9	nt	-1	nt	nt	nt
NC(=O)C12CCCC(Br)(CCC1)C2	i	-9	-5	nt	3	-2	2	7
CNC(=O)Nc1cc(C(C)(C)C)no1	i	-8	-4	-22	2	1	-1	6
Cc1ccc(C(=O)NCCCn2ccnc2)cc1[N+](=O)[O-]	i	14	-11	-14	6	nt	nt	-1
CCC(C)c1ccc(S(=O)(=O)N2CCN(C(=O)COc3ccc4c(C)cc(=O)oc4c3)CC2)cc1 (stereo unspecified)	i	-8	-6	nt	-11	-7	-8	nt
Cc1ccc(C(=O)OCC(=O)Nc2cc(S(=O)(=O)N3CCOCC3)ccc2C)cc1	i	7	-14	17	-1	0	6	7
COc1ccc(C(=O)/C=C/c2ccc(OC)c(O)c2)c(F)c1	i	47	5	-13	9	-2	1	nt
CCOC(=O)CNC(=O)N1CCc2ccc(NC(=O)c3ccccc3OC)cc2C1	i	-9	50	-13	-1	6	3	-3
CC1CN(C(=O)c2cccc(S(=O)(=O)Nc3cc(Cl)ccc3Cl)c2)CC(C)O1 (stereo unspecified)	i	-12	-8	nt	-3	0	-2	-7
CC/C(O)=C1\C(=O)CC(c2ccccc2)CC1=NC(C)C (stereo unspecified)	i	-3	0	-12	12	2	5	-3
O=C1NC(c2ccc(Cl)cc2Cl)Oc2ccccc21 (stereo unspecified)	i	-18	2	-7	-9	-2	0	2
CC(C)OC(=O)Cn1nnc(-c2ccccc2)n1	nt	-4	1	-17	-8	-12	-1	-11
CCN(C(=O)c1ccc(Br)cc1)c1ccccc1	i	1	-8	nt	3	-1	-4	10
c1csc(-c2csc(-c3cccs3)n2)c1	i	-10	4	-15	2	6	5	-130
Cc1ccc(C)c(N(CC(=O)NC(C)(C)C)C(=O)CNC(=O)c2cccs2)c1	i	-9	-5	nt	2	-2	-4	27
CC(OC(=O)c1nc(-c2ccccc2)n(-c2ccccc2)n1)C(=O)Nc1cc(Cl)cc(Cl)c1 (stereo unspecified)	i	-2	-8	nt	-6	4	3	-21
CCC(C)NC(=O)Cn1cnc2sc(C)cc2c1=O (stereo unspecified)	i	2	-6	-10	-11	-3	5	nt
COc1ccc(C(=O)NC2CCCc3ccccc32)cc1Br (stereo unspecified)	i	-1	26	-25	4	-2	-6	-1
Cc1ccc2oc(C(=O)N(Cc3ccc(N(C)C)cc3)C3CCS(=O)(=O)C3)c(C)c2c1 (stereo unspecified)	i	16	6	3	6	-3	-1	-7
COc1cc(-c2c(-c3ccsc3)sc3ccccc23)cc(OC)c1OC	nt	nt	42	-18	nt	-5	-13	29

Part of the list above in order of length of the SMILES, low to high:
SMILES	Rce1 inhib	eIF4H inh	CSC inhib	Yeast UUG start	PABP polyA inh	MT1-MMP act inh	MT1-MMP act inh RFP	HIV Env fusion	others
CCN(C(=O)c1ccc(Br)cc1)c1ccccc1	i	1	-8	nt	3	-1	-4	10
COc1cc(-c2c(-c3ccsc3)sc3ccccc23)cc(OC)c1OC	nt	nt	42	-18	nt	-5	-13	29
CC(OC(=O)c1nc(-c2ccccc2)n(-c2ccccc2)n1)C(=O)Nc1cc(Cl)cc(Cl)c1 (stereo unspecified)	i	-2	-8	nt	-6	4	3	-21

(next part)
SMILES	Rce1 inhib	eIF4H inh	CSC inhib	Yeast UUG start	PABP polyA inh	MT1-MMP act inh	MT1-MMP act inh RFP	HIV Env fusion	others
O=C(CC1C(=O)NCCN1CC1CCCCC1)NC1(c2ccccc2)CC1 (stereo unspecified)	i	5	-3	nt	4	-5	-5	14
COc1ccc(OC)c(C(=O)COC(=O)CNC(=O)c2ccccc2)c1	i	-6	17	nt	-1	1	0	-19
CCc1c(C)[nH]n(-c2nc(-c3ccccc3)cs2)c1=O	i	9	-35	nt	2	1	6	13
COc1ccc(NC(=O)c2ccco2)cc1NC(=O)c1ccc(Br)o1	i	-10	-9	-13	-14	7	1	-28
NC(=O)C1CCCN(S(=O)(=O)c2ccccc2)C1 (stereo unspecified)	i	-10	-15	-13	-4	2	5	nt
O=C(NCc1cccs1)c1cc(-c2ccccc2)nn1CC1CC(c2cccnc2)=NO1 (stereo unspecified)	i	nt	3	-7	nt	-2	2	4
Cc1noc(C)c1C(=O)Nc1cccc2ncccc12	nt	-15	-4	4	-1	1	0	-13
COc1ccc(CN(C)c2nc(-c3cccnc3)nc3ccccc23)cc1OC	nt	-7	12	nt	-15	nt	nt	nt
CC(C)CC(=O)N1CCC(O)(CS(=O)(=O)Cc2ccc(Cl)cc2)CC1	i	-1	-9	-7	3	-3	-1	-20
NC1C=CC=C(C(=O)O)C1 (stereo unspecified)	i	nt	-13	2	nt	-1	1	3
Cc1ccc(NC(=O)CN(C)CC(=O)Nc2ccccc2Oc2ccccc2)cc1	i	-1	-13	nt	-10	0	2	5
COc1cccc(-c2cc(=O)c3cc(NC(=O)c4ccc(N(C)C)cc4)ccc3[nH]2)c1	i	2	?	nt	-2	nt	nt	nt
CCCSc1nnc(NC(=O)Nc2ccccc2)s1	i	nt	41	-12	nt	-4	-11	-9
O=C(NC1C(=O)NNC1c1ccc(Cl)cc1)c1ccc(F)cc1 (stereo unspecified)	i	4	nt	nt	-4	-1	8	-8
CC(=O)Nc1ccc(NC(=O)c2ccccc2N(C)S(=O)(=O)c2ccccc2)cc1	i	-6	-6	-12	1	1	-1	-1
CC(=O)NC(=S)NNC(=O)c1ccc(Br)cc1	i	12	20	nt	4	1	5	-2
O=C(O)CC(NS(=O)(=O)c1c(F)cc(F)cc1Br)c1ccccc1Cl (stereo unspecified)	i	0	-7	nt	-17	-4	7	-24
CN(C)c1ccc(C(=O)Nc2ccc(O)c3c(=O)cc(-c4ccccc4Cl)oc23)cc1	i	2	5	-28	1	4	3	29
OCCC1CN(Cc2ccc(-n3cccn3)cc2)CCN1Cc1ccccc1 (stereo unspecified)	i	0	-2	-18	0	5	1	1
CCOC(=O)Cn1c(=O)c2c(nc3n2CCCN3CCc2ccccc2)n(C)c1=O	i	-7	-5	8	1	3	3	-7
CCC(C)(C)n1nnnc1C(c1cc2cc(OC)c(OC)cc2[nH]c1=O)N1CCc2ccccc21 (stereo unspecified)	i	3	-10	nt	1	-2	2	-50
Cc1cccc(Nc2c3c(nc4ccccc24)CCC3)c1	i	-3	39	-12	-4	4	-9	9
CCOC(=O)C/C(C)=N\Nc1nc(-c2ccccc2)cs1	i	-1	nt	nt	-18	nt	nt	-3
Cc1ccc(S(=O)(=O)NC(=O)c2ccc(F)cc2)c(C)c1	i	-2	-9	-10	1	0	-2	0
CCCCCc1ccc2cc(C#N)ccc2n1	nt	nt	nt	-5	nt	3	-1	-29
CCN(Cc1ccccc1)S(=O)(=O)c1cc(C(=O)NC2CCCCCC2)ccc1OC	i	5	9	nt	2	3	-12	nt
S=C(Nc1ccccc1)Nc1ccc(Br)cn1	i	5	-12	nt	-4	4	-1	-33
O=C1c2ccccc2C(O)(Cc2ccccc2)N1CCCN1CCOCC1 (stereo unspecified)	i	2	-10	-10	8	-2	4	-38
CCCCNC(=O)CCNS(=O)(=O)c1ccc(C)cc1	i	-9	-17	-20	-2	5	3	nt
CCn1cc(CN2CCC(n3nccc3NC(=O)c3ccccc3C)CC2)c(C)n1	i	-5	-9	-15	-4	4	7	8
O=C(CN1CCN(c2ccccc2F)CC1)c1ccc(O)cc1O	i	4	0	-11	12	3	1	-6
CCCc1nnc(NC(=O)C23CC4CC(CC(C4)C2)C3)s1	i	0	23	-2	2	-9	-9	12
CCCC(=O)Nc1c(O)c2ccccc2[nH]c1=O	i	1	-2	-5	6	-6	4	3
Cc1onc(-c2c(Cl)cccc2Cl)c1C(O)c1ccc(F)cc1 (stereo unspecified)	i	-11	3	-1	5	1	0	37
COCC(C)n1c(SCc2ccc(OC)c(F)c2)nc2ccccc2c1=O (stereo unspecified)	i	-7	nt	nt	3	-4	-8	21
O=C(CCNC(=O)c1ccccc1)NCCCc1ccccc1	nt	nt	nt	-14	nt	0	2	10
COC(=O)C1=C(N)Oc2cc(C)n(Cc3cccnc3)c(=O)c2C1c1ccc(OC)c(OC)c1OC (stereo unspecified)	i	-4	-1	-19	6	2	2	nt
COc1ccc(NC(=O)C(=O)NCCN2CCN(C(=O)c3ccc(C)cc3)CC2)cc1	i	98	nt	-12	7	1	-2	3	eIF4H inh retest=-2;PABP polyA inh retest=15
O=C(COC(=O)c1ccc[nH]c1=O)NCCc1ccc(Cl)cc1Cl	i	3	0	-28	-2	4	2	-47
CCn1cc(C(=O)Nc2ccc(OC)c(OC)c2)c2cc(OC)c(OC)cc2c1=O	i	-10	-5	19	-2	2	3	-2
Cc1nn(CC(O)COc2ccc3c(c2)CCC3)c(C)c1C (stereo unspecified)	i	10	-8	-21	-7	3	-3	nt
O=C(CN1CCCCC1)Nc1cccc(Cl)c1	i	-6	-9	nt	14	1	5	16
COC(=O)c1cn(CCC#N)nc1-c1ccc2ccccc2c1	i	-5	-14	-6	5	3	-5	1
CCN(c1ccc(NC(=O)COC(=O)c2ccc(C)c(S(=O)(=O)N3CCOCC3)c2)cc1)C(C)C	i	-5	5	-12	1	2	4	33
CC(=O)c1cccc(NC(=O)N2CCCC2C(=O)NCc2ccccc2)c1 (stereo unspecified)	i	-2	-4	-7	-3	29	10	8
COc1cc(/C=N/NC(=O)c2nnn(-c3nonc3N)c2C(C)C)ccc1OCc1ccccc1	i	-2	22	-15	2	-5	-24	-13
O=c1[nH]c(=O)n(-c2ccc(F)cc2)c2c1C(C(F)(F)F)(C(F)(F)F)N=C(c1ccc(F)cc1)N2	i	-2	nt	2	-3	-13	-37	nt
CCCCN(C)C(=O)c1nc2ccccn2c1CNCCCn1ncc2ccccc21	i	-9	-6	-5	-4	-2	-4	28
O=C(O)c1cccc2c1C(=O)N(Cc1ccccc1)C2	i	6	-20	-8	4	-5	-2	-12

Structures above that have a Cl atom (10):
SMILES	Rce1 inhib	eIF4H inh	CSC inhib	Yeast UUG start	PABP polyA inh	MT1-MMP act inh	MT1-MMP act inh RFP	HIV Env fusion	others
CC1CN(C(=O)c2cccc(S(=O)(=O)Nc3cc(Cl)ccc3Cl)c2)CC(C)O1 (stereo unspecified)	i	-12	-8	nt	-3	0	-2	-7
O=C1NC(c2ccc(Cl)cc2Cl)Oc2ccccc21 (stereo unspecified)	i	-18	2	-7	-9	-2	0	2
CC(OC(=O)c1nc(-c2ccccc2)n(-c2ccccc2)n1)C(=O)Nc1cc(Cl)cc(Cl)c1 (stereo unspecified)	i	-2	-8	nt	-6	4	3	-21
CC(C)CC(=O)N1CCC(O)(CS(=O)(=O)Cc2ccc(Cl)cc2)CC1	i	-1	-9	-7	3	-3	-1	-20
O=C(NC1C(=O)NNC1c1ccc(Cl)cc1)c1ccc(F)cc1 (stereo unspecified)	i	4	nt	nt	-4	-1	8	-8
O=C(O)CC(NS(=O)(=O)c1c(F)cc(F)cc1Br)c1ccccc1Cl (stereo unspecified)	i	0	-7	nt	-17	-4	7	-24
CN(C)c1ccc(C(=O)Nc2ccc(O)c3c(=O)cc(-c4ccccc4Cl)oc23)cc1	i	2	5	-28	1	4	3	29
Cc1onc(-c2c(Cl)cccc2Cl)c1C(O)c1ccc(F)cc1 (stereo unspecified)	i	-11	3	-1	5	1	0	37
O=C(COC(=O)c1ccc[nH]c1=O)NCCc1ccc(Cl)cc1Cl	i	3	0	-28	-2	4	2	-47
O=C(CN1CCCCC1)Nc1cccc(Cl)c1	i	-6	-9	nt	14	1	5	16

Screening data as filed in PubChem.
